ugtP null kill = growth inhibition of S. aureus ugtP deletion strain | actives 0.54% (n = 330,000) | growth inhibition, % (no concentration beside the values) | S. aureus RN4220 ugtP deletion, OD600 growth, 16 h; some inactives read as strong as hits | AID 1259309;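 active = z-score under -3 and OD600 up to 0.15 on both plates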;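 also: plate controls were untreated wells for no effect and antibiotic for full effect; wells of about 80 µL received 100 nL stock; the first replicate is given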
PrP 5UTR inh = inhibition of PrP 5' UTR reporter expression; cell-based PrP 5' UTR mRNA reporter, plate reader; inhibition, % (no concentration beside the values); actives 0.35% (n = 340,000);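 active = every replicate at 50% or more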;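 also: 0 = median of the neutral control wells; tested in H4 reporter cells; numbers are from one replicate; inactives centre near -14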
Bead autofluor = counter-screen for toxin protease inhibitors: compound fluorescence; actives 3.1% (n = 360,000); fluorescence intensity (test concentration not listed); compound autofluorescence counterscreen, microsphere flow cytometry; stronger effect = higher value;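 active = at least 3 SD above the mean of all compounds, about 16000 in these data; inconclusive = too few beads counted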;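 also: 100 nL of 1 mM stock went into each well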
BJeLR lethal = kills HRASV12-expressing BJeLR cells; BJeLR (HRASV12) viability, CellTiter-Glo ATP luminescence, 48 h; reference of the scale not given here; inhibition, % (test concentration not listed); actives 0.17% (n = 300,000);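 active = replicate mean above 50%; inconclusive = above 50% but judged a plate artefact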;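 also: 50 nL library stock added to about 25 µL; numbers are from one replicate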
RN4220 kill = S. aureus RN4220 growth inhibition; OD600, 16 h; inhibition, % (concentration not given with the values); actives 0.33% (n = 330,000); AID 1259311;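 active = z-score of -3 or lower and OD600 up to 0.18 on both plates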;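 also: plate controls were untreated cells for no effect and reference antibiotic for full effect; stock transfer was 100 nL into about 80 µL; one replicate is shown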
Mtb hypoxia rep = inhibitors of hypoxia-regulated fluorescent reporter in Mycobacterium tuberculosis; fluorescence inhibition, % (concentration not given with the values); actives 0.1% (n = 300,000); M. tuberculosis hypoxia-regulated fluorescent reporter, fluorescence;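 active = 35 to 45% if threefold the growth effect, above 45% if 1.5-fold the growth effect; inactive = the rest, general growth blockers included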;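 also: wells of about 50 µL received 100 nL stock; 0% = vehicle wells and 100% = reference inhibitor wells; whole bacteria with a GFP reporter of the hypoxia response; strong numbers were not always called active; many hits fall short of the cut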
Mtb hypoxia rep growth = second read-out of Mtb hypoxia rep, no call of its own (marks repeat the call); growth inhibition, %; measured here: M. tuberculosis growth (absorbance);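 0% = vehicle and 100% = reference antibiotic; read after six days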
An asterisk follows results filed as active; ? = inconclusive; / = no result given; & = joins results of further samples. An unsorted share of the library. About 4% of those tested had a hit in this group.

SMILES	ugtP null kill	PrP 5UTR inh	Bead autofluor	BJeLR lethal	RN4220 kill	Mtb hypoxia rep	Mtb hypoxia rep growth
CC12CCC(C/C1=N/NC(=O)COc1ccccc1Cl)C2(C)C (stereo unspecified)	/	-31	4318	-1	/	/	/
Cc1cc(C)n(-c2c(F)c(F)c(CO)c(F)c2F)n1	1	-10	6933	3	-2.0	5	-1
CC(C)N(Cc1nc(-c2ccccc2)no1)C(=O)CSc1ccccc1	6	-9	8623	-7	3.6	4	3
CCc1cc(C(=O)NNC(=O)c2csc(N3CCOCC3)n2)sc1C	12	-32	5090	/	-4.2	11	4
Cc1cccc(NC(=O)CSc2nnc(CNC(=O)c3ccc(S(=O)(=O)N(C)C)cc3)n2-c2cccc(C)c2)c1	1	-17	2141	-24	2.5	6	6
COc1ccc(CCC(=O)N2CCCc3ccccc32)cc1	9	-17	3815	13	3.9	12	10
COc1ccc(CCC(=O)NCCc2nc3ccccc3[nH]2)cc1	5	-12	3458	-4	-1.9	5	-4
CCOC(=O)C1=C(CC)Nc2ccccc2N/C1=N\S(=O)(=O)c1ccc2ccccc2c1	11	-17	4664	-13	-5.0	-9	-4
Cc1ccc(-c2nonc2NC(=O)c2ccco2)cc1	0	13	5282	0	5.1	4	9
CC(C)C(NC(=O)c1ccc(F)cc1)C(=O)N1CCOCC1 (stereo unspecified)	-2	7	5960	/	-1.7	10	8
Nc1nonc1-n1nnc(C(=O)NN=Cc2cccnc2)c1-c1cccs1	4	/	/	/	3.8	5	1
Cc1ccc(S(=O)(=O)NCC(=O)NCc2cc(=O)n(C)c(=O)n2C)cc1	4	-8	5109	5	3.8	0	3
Cc1ccc2c(c1)c1c(n2CC(O)CN2CCC(C)CC2)CCCC1 (stereo unspecified)	6	-2	4495	12	-0.5	-1	-1
CCc1cc(-c2n[nH]c(C)c2-c2nc3ccccc3n2C)c(O)c(CN2CCN(C)CC2)c1O	7	-17	11234	3	4.3	9	0
CCCC1S/C(=N/N=Cc2ccco2)NC1=O (stereo unspecified)	-2	/	/	/	3.8	11	2
Cc1ccc(S(=O)(=O)[N-]c2nc3ccccc3nc2-[n+]2cc(C)cc(C)c2)cc1	4	-12	5276	4	0.8	1	-3
c1ccc2c(-c3c[nH]c4ccccc34)c3ccccc3nc2c1	57	-19	4902	11	3.2	/	/
CC(C)NC(=O)CN1CCN(Cc2nc(-c3cccs3)no2)CC1	5	-27	4167	4	-4.0	10	2
CC(C)NC(=O)COc1ccc(S(=O)(=O)N2CCCC2)cc1	10	-18	4100	-4	1.0	2	7
COc1cc(/C=C/C(=O)Nc2ccc(C)cc2)cc(OC)c1OC	16	-14	1972	10	0.7	0	4
COc1ccccc1NCCC(=O)OCC(=O)NC1CC1	-2	1	2672	-4	6.0	3	4
COc1cccc(CNS(=O)(=O)c2cc(Br)cc3c2N(C(C)=O)C(C)C3)c1 (stereo unspecified)	4	-25	10335	-1	11	13	1
CCc1ccc(/C=N/NC(=O)c2nnn(-c3nonc3N)c2CN2CCOCC2)cc1	/	-24	5035	-2	/	/	/
Nc1c2c(nc3ccccc13)CCCC2	3&6	-21&-15&-55	5195&5686	1	0.6&7.0	-4&7	-3&3
COc1ccc2nc(NC(=O)CCNC(=O)c3ccccc3Cl)sc2c1	7	-90	2236	4	4.4	5	0
CCN(CC)C(=O)COc1ccc2c3c(c(=O)oc2c1)CCCC3	8	-35	3478	-3	-2.1	1	3
COc1ccc(N(CC(=O)NCCc2ccc(C)cc2)S(=O)(=O)c2c(C)noc2C)cc1	0	-19	5007	-2	1.8	1	-2
COC(=O)c1ccc(C23CC4(C2)C(CN(Cc2cccnc2)C4c2ccccc2)C3c2ccc(C(F)(F)F)cc2)cc1 (stereo unspecified)	3	/	/	/	-0.8	2	0
COc1ccccc1Oc1c(C)oc2c(CN3CCN(C)CC3)c(O)ccc2c1=O	2	/	/	-4	13	-3	10
CCN1CCN(CC(=O)c2ccc(OC)cc2)CC1	6	-46	4417	4	-0.9	-4	-3
CCOC(=O)N1CCC(NC(=O)c2cc(COc3c(C)cccc3C)on2)CC1	4	-4	6035	11	0.8	3	8
Cc1ccccc1Nc1nc(CSc2nnc(-c3ccoc3C)n2C)cs1	-11	-32	8314	3	3.3	7	10
CCCCNC(=O)c1onc(CSc2ccccn2)c1C(=O)NCCCC	-7	-5	2821	3	-0.4	11	9
COC(=O)c1[nH]c2c(c1C)C(=O)CC(c1cccc(OC)c1)C2 (stereo unspecified)	-9	74*	3682	43	-2.9	-6	-5
Cc1ccc(C(=O)NS(=O)(=O)c2ccc(C)cc2)cc1	5	-2	4021	-5	3.9	-10	-6
C=CCn1c(C)nnc1SCC(=O)Nc1ccc2c(c1)OCCO2	4	-20	2910	/	3.4	11	5
COC(=O)c1ccc(CSc2nc3c(cnn3-c3ccc(C)c(C)c3)c(=O)[nH]2)o1	2	-16	4894	/	7.0	/	/
O=S(=O)(c1cccc(-c2cn3cccnc3n2)c1)N1CCCCCC1	-14	-11	3571	-14	-10	4	6
COc1ccc(C(=O)NCCNC(=O)c2ccc(C)nc2)cc1	-2	-18	3806	-13	-0.2	8	-5
CC(C)[C@H](NC(=O)c1ccccc1)C(=O)OCC(=O)NCCC1=CCCCC1	3	-22	2297	-9	2.3	3	9

Full records from above. Order of values: ugtP null kill | PrP 5UTR inh | Bead autofluor | BJeLR lethal | RN4220 kill | Mtb hypoxia rep | Mtb hypoxia rep growth
CC(C)[C@H](NC(=O)c1ccccc1)C(=O)OCC(=O)NCCC1=CCCCC1 as listed: 3 | -22 | 2297 | -9 | 2.3 | 3 | 9
CCOC(=O)N1CCC(NC(=O)c2cc(COc3c(C)cccc3C)on2)CC1 as listed: 4 | -4 | 6035 | 11 | 0.8 | 3 | 8

Next compounds:
SMILES	ugtP null kill	PrP 5UTR inh	Bead autofluor	BJeLR lethal	RN4220 kill	Mtb hypoxia rep	Mtb hypoxia rep growth
Cc1ccc2nc(SCC3CCCCO3)[nH]c2c1 (stereo unspecified)	-2	-18	5194	-9	2.2	14	13
Oc1c(Br)cc(Br)cc1C=NCc1ccccc1	10	-32	2274	3	-8.2	1	3
O=S(=O)(Nc1cccc(-c2ccc(N3CCCCCC3)nn2)c1)c1ccc(C(F)(F)F)cc1	2	-36	5665	-3	-4.5	11	8
OC(CN1CCOCC1)Cn1c(-c2cccc(Cl)c2)nc2ccccc21 (stereo unspecified)	9	-14	?	8	4.0	5	-15
O=S(=O)(c1ccccc1)N1CCN(Cc2c(O)ccc3ccccc23)CC1	3	-3	3730	/	4.9	6	0
CC(C)(C)NC(=O)c1cc(Cl)ccc1[N+](=O)[O-]	5	-28	2455	4	2.1	-4	-14
CCOC(=O)C(=NC(C)CC)NNc1ccc(Br)cc1 (stereo unspecified)	3	-18	2473	11	-0.2	14	2
C=CCn1c(O)c(N=NC(=S)Nc2ccc(OC)cc2)c2ccccc21	-17	22	1747	2	17	12	4
C=CCn1c(=O)c2c(C)c(C)sc2n2c(Nc3ccccc3)nnc12	-7	-7	9571	-7	2.2	-7	6
Cc1cccc(CSc2nnc([C@@H]3CCCN3C(=O)OC(C)(C)C)o2)c1	4	-22	3831	6	4.9	-3	-3
CCNC(=O)/C=C/c1ccccc1[N+](=O)[O-]	5	-13	2126	3	4.0	12	3
O=C(O)CCN(Cc1ccccc1)S(=O)(=O)c1ccccc1Cl	6	-7	5002	11	9.5	12	5
Clc1ccc(CNC2CN3CCC2CC3)cc1 (stereo unspecified)	9	-18	2567	-10	5.0	9	10
Cc1cc(OCCn2cncn2)ccc1[N+](=O)[O-]	4	1	2893	5	4.5	15	2
CCn1c(C)c(C(C)=O)c(N2CCN(c3ccc(F)cc3)CC2)nc1=S	8	-5	5577	7	4.0	/	/
COc1ccc(-c2cc(-c3cccs3)c(C#N)c(SCC(=O)NCc3ccccc3OC)n2)cc1	0	-24	3021	5	0.7	/	/
CCOC(=O)C1CCN(CC(=O)c2c(C)[nH]c3ccccc23)CC1	-7	-3	2902	2	-12	16	13
COc1cc2nc(C3CCC3)n(NC(=O)C3CCC(OC)CC3)c(=O)c2cc1OC (stereo unspecified)	-1	/	9855	2	2.1	-1	4
CCCOc1ccc(N2C(=O)CC(N3CCC(O)(c4cccc(C(F)(F)F)c4)CC3)C2=O)cc1 (stereo unspecified)	-5	-24	4277	1	-0.1	/	/
Cc1ccc(/C=N/NC(=O)C(=O)N/N=C/c2ccc(C)o2)o1	/	-10	3133	-21	/	/	/

4 entries from above, set out differently:
Values in the order – ugtP null kill	PrP 5UTR inh	Bead autofluor	BJeLR lethal	RN4220 kill	Mtb hypoxia rep	Mtb hypoxia rep growth
> COC(=O)c1[nH]c2c(c1C)C(=O)CC(c1cccc(OC)c1)C2 (stereo unspecified)
  -9	74*	3682	43	-2.9	-6	-5
> Cc1ccc(C(=O)NS(=O)(=O)c2ccc(C)cc2)cc1
  5	-2	4021	-5	3.9	-10	-6
> C=CCn1c(C)nnc1SCC(=O)Nc1ccc2c(c1)OCCO2
  4	-20	2910	/	3.4	11	5
> COC(=O)c1ccc(CSc2nc3c(cnn3-c3ccc(C)c(C)c3)c(=O)[nH]2)o1
  2	-16	4894	/	7.0	/	/

(further entries)
SMILES	ugtP null kill	PrP 5UTR inh	Bead autofluor	BJeLR lethal	RN4220 kill	Mtb hypoxia rep	Mtb hypoxia rep growth
O=C(COC(=O)C12CC3CC(CC(C3)C1)C2)NCc1ccco1	-8	-2	2639	-1	4.1	13	8
CN1CCC(N(C)C(=O)c2ccccc2Nc2ccc(SC(F)F)cc2)CC1	0	3	7094	9	3.3	2	9
Cc1cc(S(=O)(=O)N2CCOCC2)ccc1OCC(=O)NCC1CCCO1 (stereo unspecified)	-1	-19	3018	-4	-1.1	-4	-1
Cc1cc2nc(C)c(Cc3ccccc3)c(=O)n2[nH]1	9	1	2706	-7	0.7	/	/
Cc1ccc(Cn2c(=N)c(C(=O)NC3CCCC3)cc3c(=O)n4ccccc4nc32)cc1	/	-17	5350	-4	/	/	/
COC(=O)c1ccccc1NC(=O)CC(NCc1ccccc1)C(=O)O (stereo unspecified)	-3	/	/	-1	-1.9	-4	6
O=C(NCc1cccnc1)C12CC3CC(CC(Cl)(C3)C1)C2	-10	-17	6624	2	-1.8	-5	5
COc1ccc(C(=O)NC(=S)Nc2cccc(NC(=O)c3ccco3)c2)cc1[N+](=O)[O-]	/	-25	8778	3	/	/	/
O=C1CCC(C(=O)N2CCCC(N3CCN(c4cccc(C(F)(F)F)c4)CC3)C2)=NN1 (stereo unspecified)	3	0	4622	-6	4.6	7	1
Cc1nn(S(=O)(=O)N(C)C)c(C)c1CN1C(=O)c2ccccc2C1=O	34	-14	10992	-1	14	5	-5
O=C(Cc1cccs1)Nc1ccc(S(=O)(=O)N2CCCC2)cc1	-17	-5	3856	-6	-5.0	-7	4
CC1CCN(C(=O)c2ccccc2NC(=O)c2cccs2)CC1	3	-22	5571	3	-3.9	3	5
CCc1n(CC(O)COCc2ccccc2)c2ccccc2[n+]1C (stereo unspecified)	8	-14	3864	0	9.6	4	-1
Nn1c(SCC(=O)Nc2ccc(N3CCOCC3)cc2)nnc1C1CC1	1	-5	8759	/	4.3	5	-1
CCOC(=O)c1ccc(NC(=O)CSc2nnc(-c3ccncc3)n2C)cc1	-9	-18	3793	-1	3.9	-3	7
CCOc1ccc(S(=O)(=O)N2CCC(C(=O)OCc3ccc(OC)cc3)CC2)cc1	12	-13	4466	-2	-2.1	9	4
NC(=O)N=Nc1c(O)n(Cc2ccccc2)c2ccc(Br)cc12	-7	7	3419	4	2.0	6	4
O=C(NCc1ccco1)C1CCN(C(=O)c2cc3sccc3n2Cc2ccc(F)cc2)CC1	3	-35	12365	-4	0.3	2	6
CCC(C)n1c(SCC(=O)NC(=O)Nc2ccc3c(c2)OCCO3)nc2ccccc2c1=O (stereo unspecified)	-3	5	8398	-4	-0.9	8	-2
COc1ccc(NC(=S)N2CCN(S(=O)(=O)c3ccc(C)cc3)CC2)cc1	8	-15	5695	2	1.1	1	-8
Cc1c(C(=O)N2CCN(c3ccccc3F)CC2)oc2c1C(=O)CC(C)(C)C2	7	-12	6055	-7	4.4	17	-2
COc1cc(OC)c(OC)cc1CNC(=O)c1ccc(S(=O)(=O)N2CC(C)OC(C)C2)cc1 (stereo unspecified)	3	-5	3791	/	2.7	7	9
CCCCSc1nc2ccc(Nc3nc(N4CCOCC4)nc(N4CCOCC4)n3)cc2s1	13	8	2546	0	-0.4	/	/
O=C(Oc1nsnc1N1CCOCC1)N(c1ccccc1)c1ccccc1	2	-30	9294	3	3.8	8	13
O=c1[nH]ncc(NCCc2ccccc2)c1Cl	8	-9	2926	-4	2.0	3	-1

Bioassay records as filed in PubChem.
